Source: PubChem BioAssay
AF4-AF9 inh = MLL-AF4/AF9 protein interaction inhibition | P42568 | AlphaScreen, biotin-AF4 peptide binding to FLAG-AF9 | inhibition, % at 10 µM | hit rate 0.47% among 350,000 | AID 651704;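 active = every replicate reaching a set inhibition limit, whatever the replicate mean, cut at about 25% in these data; inconclusive = mean inhibition reaches that limit but some replicates miss it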;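 also: 0% = plate neutral control median and 100% = total signal loss; the record names both 10 and 1 µM as test concentration; the first replicate is given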
Target sequence (P42568 whole entry, looked up): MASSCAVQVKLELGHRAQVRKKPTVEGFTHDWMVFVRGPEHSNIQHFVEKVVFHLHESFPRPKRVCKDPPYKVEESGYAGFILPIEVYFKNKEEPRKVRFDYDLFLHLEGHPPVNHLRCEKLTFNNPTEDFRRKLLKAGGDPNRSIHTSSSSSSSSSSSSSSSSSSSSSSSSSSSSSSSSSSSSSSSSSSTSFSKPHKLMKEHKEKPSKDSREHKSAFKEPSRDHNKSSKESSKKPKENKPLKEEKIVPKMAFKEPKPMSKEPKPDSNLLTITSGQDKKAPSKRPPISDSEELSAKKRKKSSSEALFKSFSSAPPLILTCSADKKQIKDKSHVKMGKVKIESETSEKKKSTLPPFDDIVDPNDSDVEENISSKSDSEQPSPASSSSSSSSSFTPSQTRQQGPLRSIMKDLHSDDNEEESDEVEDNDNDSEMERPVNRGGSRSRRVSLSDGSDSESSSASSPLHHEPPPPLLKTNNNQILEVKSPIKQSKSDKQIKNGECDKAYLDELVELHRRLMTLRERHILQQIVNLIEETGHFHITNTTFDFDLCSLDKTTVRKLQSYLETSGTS
Calb FLC = C. albicans growth modulation with fluconazole; growth inhibition, % (test concentration not listed); hit rate 0.57% among 300,000; C. albicans CaCi-2 (fluconazole-resistant clinical isolate) + fluconazole, Alamar Blue growth, 48 h; AID 1979;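 active = most replicates above 75%; inconclusive = exactly half above 75%; inactive = most below 75%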;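 also: all wells also contain fluconazole at 8 µg/ml as a sub-toxic cotreatment; 0% = median of DMSO wells and 100% = median of geldanamycin control wells; wells of about 8 µL received 7.5 nL stock; the first replicate is given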
RanGTP-Impb inh = inhibitors of RanGTP-importin-beta interaction, primary screen, biochemical, FRET, CFP-Ran, YFP-importin-beta, homogeneous. hit rate 1.1% among 300,000. cell-free CFP-Ran/YFP-importin-beta FRET ratio. inhibition, % (test concentration not listed);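 active = most replicates above 15%; inconclusive = exactly half above 15%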;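 also: 0% = DMSO wells and 100% = Ran loaded with GDP instead of GTP; wells of about 40 µL received 100 nL stock; the first replicate is given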
Bfl-1 A1 inh = inhibitors of the anti-apoptotic protein A1, read as caspase activation. MEF A1-2A-BIM cells, Caspase-Glo 3/7 luminescence, 3 h; percent of clofoctol response, vehicle zero. caspase activation, % (test concentration not listed). hit rate 0.066% among 330,000. AID 2462;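 active = over half of replicate activation scores above 10%, or exactly half above 10 with the replicate mean above 10; inconclusive = replicate mean below 10 yet half the replicates above 10; inactive = over half of replicates below 10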;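 also: wells of about 30 µL received 50 nL stock; many hits fall short of the cut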
Vif A3G = HIV-1 Vif–A3G interaction blockers – biochemical, TR-FRET, GST-Vif 1-94, biotin-A3G peptide, dose response retest, primary screen (AID 1117319); TR-FRET GST-Vif / biotin-A3G peptide binding; higher % means a stronger effect; test concentration not given here; strong numbers were not always called active; one-dose inhibition, %; IC50 in µM for titrated hits; hit rate 0.57% among 260,000;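 active = above the screen mean plus three standard deviations and confirmed in dose response; inconclusive = results disagree or hit not tested in dose response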;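 also: Vif residues 1-94 fused to GST binding biotinylated APOBEC3G peptide 110-148; 0% = full assay without inhibitor and 100% = GST in place of GST-Vif; retest series ran down from 100 µM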
rRNA inh HTS = selective bacterial rRNA inhibition in E. coli | GFP signal change (wild-type ribosome), % (concentration not given with the values) | E. coli WT GFP vs humanized-ribosome RFP mutants, fluorescence, 24 h; active compounds read low; DMSO median 0, no signal -100 | hit rate 1.6% among 350,000;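 active = significant combined selectivity score with lowered wild-type GFP, culture density cut under 30%, mutant RFP and density less affected; inactive = any of these conditions unmet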; also: one replicate is shown; some compounds called inactive have numbers as strong as hits
T cruzi inh = blocks replication of Trypanosoma cruzi. T. cruzi beta-gal in NIH3T3, luminescence, 90 h. inhibition, % (test concentration not listed). hit rate 1.4% among 300,000;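 active = mean inhibition across valid replicates above about 55%, limit read from the data; inconclusive = mean below that limit but half or more replicates reach it; inactive = mean below it, under half of replicates reach it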;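 also: signal also drops with host cell toxicity which is not excluded here; 0% = plate median of DMSO wells and 100% = zero luminescence signal; higher percent means less beta-gal luminescence so fewer parasites; stock transfer was 50 nL into about 50 µL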
Beta apoptosis = beta cell apoptosis inhibition; hit rate 0.8% among 300,000; protection from apoptosis, % (test concentration not listed); INS-1E cytokine-induced death, ATP luminescence, 48 h; percent of positive-control rescue, neutral wells zero;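 active = all replicates at 75% or more, or half of them and the mean; inconclusive = half reach 75% but not the mean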;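 also: 0% = cytokine-treated negative control wells and 100% = positive control rescue; higher means more ATP so stronger rescue from cytokine killing; wells of about 40 µL received 100 nL stock; the first replicate is given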
rRNA inh HTS OD600 = second read-out of rRNA inh HTS, no call of its own (marks repeat the call); OD600 change, %; measured here: OD600 growth;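 optical density of the mix in the first replicate; 0 = DMSO median and -100 = no signal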
rRNA inh HTS RFP = recorded beside rRNA inh HTS, whose call it bears; RFP signal change, %; measured here: RFP humanized mutant strains;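 first replicate; 0 = DMSO median and -100 = no signal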
* hit, by the source's call; ? = inconclusive; · = no result given. An excerpt; count on the stated rates, not on these rows.

Molecule,AF4-AF9 inh,Calb FLC,RanGTP-Impb inh,Bfl-1 A1 inh,Vif A3G,rRNA inh HTS,rRNA inh HTS OD600,rRNA inh HTS RFP,T cruzi inh,Beta apoptosis
COc1ccc(C2CC(c3cccs3)=NN2C(=O)c2ccco2)cc1OC (stereo unspecified),0.4,-17,-0.9,0.8,5%,-26,-32,2.3,15,-7
CCOC(=O)/C(C#N)=C1\CC2CCC1(C)C2(C)C (stereo unspecified),-3.2,-10,5.7,-1.5,0%,24,8,-8.5,-11,-6
FC(F)(F)c1cccc(CN2CCC(c3cc(-c4cccs4)n[nH]3)CC2)c1,-2.3,-21,3.4,-0.6,10%,-6,-10,0.7,61*,24
COc1ccc([N+](=O)[O-])cc1NC(=O)C(C)OC(=O)C1CCC1 (stereo unspecified),-8.2,5,6.9,-0.8,-2%,-2,-1,0.2,-5,·
Cc1ccc(C)c(S(=O)(=O)N2CCN(C(=O)Cc3ccsc3)CC2)c1,-2.6,-10,5.8,0.5,·,-2,-1,-1.0,3,-3
CCOc1ccccc1/C=C(/NC(=O)c1ccccc1)C(=O)N(CC)CC,-1.3,5,?,0.5,·,-7,-8,-6.5,-5,-4
Cc1oc2ccc(OC(=O)c3cccs3)cc2c1C(=O)OC(C)C,-5.1,-15,0.1,0.4,-3%,·,·,·,1,1
O=C(COc1ccc(Br)cc1)Nc1ccc(NC(=O)c2ccccc2)cc1,-0.6,-5,1.6,-0.5,·,11,16,2.2,0,-1
C/C(=N\NC(=S)NCc1ccccc1)c1cccc(Br)c1,-1.9,4,46*,0.5,-11%,-11,-16,0.2,-23,1
CCOc1cccc(C(=O)Nc2ccc3oc(-c4cccnc4)nc3c2)c1,·,-3,?,-0.6,-19%,6,-4,1.2,2,-7
O=C(CN1C(=O)NC2(CCCC2)C1=O)Nc1nc(-c2ccccc2)cs1,-1.5,·,5.8,-2.2,0%,1,3,-1.0,1,2
Cc1noc(C)c1COC(=O)COc1cccc2c1OC(C)(C)C2,·,14,-0.2,-0.8,-4%,·,·,·,·,-2
COc1cc(Cl)c(C)cc1NC(=O)c1ccc(NS(=O)(=O)c2ccc(F)c(F)c2)cc1,-2.7,-10,-0.3,0.4,-18%,·,·,·,-14,15
O=C(Nc1nnc(SCc2ccc(Cl)cc2Cl)s1)C1COc2ccccc2O1 (stereo unspecified),·,35,-1.7,-0.2,-4%,·,·,·,-7,3
Cc1cccc(NC(=S)N/N=C/c2cccc([N+](=O)[O-])c2)c1,·,-16,-1.1,1.7,?,·,·,·,26,11

Single records, as listed above. Values in the order: AF4-AF9 inh	Calb FLC	RanGTP-Impb inh	Bfl-1 A1 inh	Vif A3G	rRNA inh HTS	rRNA inh HTS OD600	rRNA inh HTS RFP	T cruzi inh	Beta apoptosis
`O=C(CN1C(=O)NC2(CCCC2)C1=O)Nc1nc(-c2ccccc2)cs1` is listed as -1.5	·	5.8	-2.2	0%	1	3	-1.0	1	2
`Cc1cccc(NC(=S)N/N=C/c2cccc([N+](=O)[O-])c2)c1` is listed as ·	-16	-1.1	1.7	?	·	·	·	26	11
`CCOc1ccccc1/C=C(/NC(=O)c1ccccc1)C(=O)N(CC)CC` is listed as -1.3	5	?	0.5	·	-7	-8	-6.5	-5	-4
`COc1ccc(C2CC(c3cccs3)=NN2C(=O)c2ccco2)cc1OC` (stereo unspecified) is listed as 0.4	-17	-0.9	0.8	5%	-26	-32	2.3	15	-7
`Cc1oc2ccc(OC(=O)c3cccs3)cc2c1C(=O)OC(C)C` is listed as -5.1	-15	0.1	0.4	-3%	·	·	·	1	1

The listing picks up, starting 3 compounds before the break.
Molecule,AF4-AF9 inh,Calb FLC,RanGTP-Impb inh,Bfl-1 A1 inh,Vif A3G,rRNA inh HTS,rRNA inh HTS OD600,rRNA inh HTS RFP,T cruzi inh,Beta apoptosis
COc1cc(Cl)c(C)cc1NC(=O)c1ccc(NS(=O)(=O)c2ccc(F)c(F)c2)cc1,-2.7,-10,-0.3,0.4,-18%,·,·,·,-14,15
O=C(Nc1nnc(SCc2ccc(Cl)cc2Cl)s1)C1COc2ccccc2O1 (stereo unspecified),·,35,-1.7,-0.2,-4%,·,·,·,-7,3
Cc1cccc(NC(=S)N/N=C/c2cccc([N+](=O)[O-])c2)c1,·,-16,-1.1,1.7,?,·,·,·,26,11
CCCCC[n+]1ccn(-c2nc3ccccc3nc2[N-]S(=O)(=O)c2ccccc2)c1,-3.4,-3,8.8,0.2,?,10,7,-0.5,10,·
O=C(c1ccc(Cl)s1)N1CCCC(N2CCN(c3ccc(F)cc3)CC2)C1 (stereo unspecified),5.3,-2,0.8,-1.2,·,0,2,-0.6,11,0
N#CC(C#N)=Cc1ccccc1OCc1ccccc1,·,-1,0.3,0.3,15%,·,·,·,-1,·
C=CC[C@H](CC(=O)OC(C)(C)C)C(=O)OC[C@H]1CCCN1C(=O)[C@@H](CC=C)CC(=O)N(CCO)Cc1ccccc1,-7.2,·,·,-0.3,·,5,10,5.1,·,6
COc1cccc(C(=O)NC(=O)Nc2cc(C)on2)c1,1.6,23,0.1,-1.6,9%,10,12,1.9,-10,3
CC1CCCCC1NC(=O)COC(=O)c1ccc(S(=O)(=O)NCc2ccco2)cc1 (stereo unspecified),·,-16,-1.1,0.3,8%,·,·,·,-8,-2
O=C(C(=O)N1CCN(c2ccccc2F)CC1)c1c[nH]c2ccccc12,1.9,-3,-1.9,0.7,-5%,5,5,1.0,7,1
COc1ccc(NC(=O)c2ccco2)cc1NC(=O)c1ccc(C#N)cc1F,1.5,1,2.6,1.8,7%,26,28,-1.8,2,-11
O=C1c2ccccc2C(=O)N1CCC(=O)N1CCCc2ccccc21,·,14,3.6,?,-3%,·,·,·,-2,-8
CCOC(=O)CC(=O)CSc1nc2nc(C)cc(C)n2n1,·,-5,?,-0.3,17%,·,·,·,7,-6
NC(=O)NCC(c1ccccc1)C1CCCCC1 (stereo unspecified),4.2,-3,3.1,-0.9,·,-27,-39,-3.0,-4,-1
CCOc1ccc(NC(=O)C2C(c3ccccc3)C2(Cl)Cl)cc1 (stereo unspecified),-1.5,-11,4.6,-0.1,·,-15,-29,-1.8,5,3
O=[N+]([O-])c1ccc(Cl)c(/C=N/N2CCN(Cc3ccccc3Cl)CC2)c1,·,-21,0.3,-0.6,-2%,·,·,·,2,·
COc1cc(C(C(=O)NC2CCCC2)N(Cc2ccco2)C(=O)c2snc(C(N)=O)c2N)cc(OC)c1OC (stereo unspecified),1.7,23,2.3,0.0,3%,9,3,8.2,-5,-9
COc1ccc(-c2sc3ccc(N4CCOCC4)cc3c2-c2ccc(O)cc2)cc1,0.8,·,·,0.5,·,9,10,-1.0,·,-5

(continued)
Molecule,AF4-AF9 inh,Calb FLC,RanGTP-Impb inh,Bfl-1 A1 inh,Vif A3G,rRNA inh HTS,rRNA inh HTS OD600,rRNA inh HTS RFP,T cruzi inh,Beta apoptosis
O=C(Nc1ccc(NC(=O)c2ccco2)cc1)c1ccc2c(c1)OCCO2,0.0,-1,0.0,0.2,-5%,6,9,6.4,14,3
COc1ccc(C(=O)Nc2ccc(NC(=O)C3CC3)cn2)cc1,4.9,-2,-3.1,-0.9,·,4,9,-2.7,8,2
COc1ccc(N2CC(C(=O)Nc3nc4ccccc4s3)CC2=O)cc1 (stereo unspecified),-6.1,-8,-2.8,-1.4,8%,-13,-16,27,8,-11
CC1CCCC(NS(=O)(=O)c2cc(Br)cnc2N)C1C (stereo unspecified),2.3,1,-2.2,0.2,·,-39,-46,-5.6,17,6
Cc1ccc(NC(=O)CSCc2c(C)noc2C)cc1C,·,2,-2.7,1.1,0%,·,·,·,-13,-2
COC(=O)c1cc(Cl)nc2ccccc12,-1.3,-3,-3.6,0.5,·,4,2,1.7,-8,4
O=C(Nc1cc(C(F)(F)F)ccc1N1CCOCC1)C1Cc2ccccc2CN1C(=O)c1ccco1 (stereo unspecified),·,-7,0.3,-0.7,13%,·,·,·,19,-2
OCCC1CN(Cc2cnc(-c3ccccc3)s2)CCN1C1CCCC1 (stereo unspecified),2.0,1,-2.6,0.2,-6%,6,2,-2.3,19,-5
COc1ccc2cc(C(=O)C3CCCN(C(=O)CSc4nnc(C)o4)C3)ccc2c1 (stereo unspecified),0.3,-14,-2.1,0.3,-13%,4,6,2.4,9,1
CCCN1C(=O)/C(=C/C=C2\N(CC)c3ccccc3C2(C)C)SC1=S,·,10,-61,-1.6,-2%,·,·,·,37,63
COC(=O)Cc1csc(Nc2c(C)n(C)n(-c3ccccc3)c2=O)n1,·,25,?,1.3,49%,·,·,·,1,-3
FC(F)(F)c1cccnc1N1CCN(c2ncnc3nc[nH]c23)CC1,-4.3,-7,2.5,-0.2,-2%,-2,-3,-1.0,15,·
O=C(CNC(=O)C12CC3CC(CC(C3)C1)C2)N1CCN(S(=O)(=O)/C=C/c2ccccc2)CC1,-5.5,-7,-1.1,1.9,13%,0,-9,3.2,15,-8
C=CCN1C(=O)C(Cc2ccc(OC)cc2)S/C1=N/N=C/c1ccco1 (stereo unspecified),·,?,4.3,0.1,?,·,·,·,12,-5
CCOc1ccccc1NC(=O)C(C)N1C(=O)c2ccccc2S1(=O)=O (stereo unspecified),29*,0,1.3,-0.7,4%,-11,-17,-0.9,-8,-3

2 of these compounds, set out differently:
Values in the order – AF4-AF9 inh | Calb FLC | RanGTP-Impb inh | Bfl-1 A1 inh | Vif A3G | rRNA inh HTS | rRNA inh HTS OD600 | rRNA inh HTS RFP | T cruzi inh | Beta apoptosis
CC1CCCC(NS(=O)(=O)c2cc(Br)cnc2N)C1C (stereo unspecified)
  2.3 | 1 | -2.2 | 0.2 | · | -39 | -46 | -5.6 | 17 | 6
Cc1ccc(NC(=O)CSCc2c(C)noc2C)cc1C
  · | 2 | -2.7 | 1.1 | 0% | · | · | · | -13 | -2

The list continues:
Molecule,AF4-AF9 inh,Calb FLC,RanGTP-Impb inh,Bfl-1 A1 inh,Vif A3G,rRNA inh HTS,rRNA inh HTS OD600,rRNA inh HTS RFP,T cruzi inh,Beta apoptosis
COc1cccc(Oc2ccc(N)cn2)c1,·,-14,-4.1,0.2,2%,·,·,·,-6,-3
CC[C@@H]1CCCCc2ccccc2[C@@H](C(=O)C[C@H](O)CC(C)=O)OC1=O,-0.1,·,·,1.3,-3%,3,0,3.8,·,-3
CC(C)CC(=O)NC1(C(F)(F)F)C(=O)Nc2c1c(=O)[nH]c(=O)n2Cc1ccco1 (stereo unspecified),·,-7,-1.9,0.6,-1%,·,·,·,-4,0
CNC(=O)N(C1=NCC(C)(C)S1)c1ccc(F)c(Cl)c1,-3.3,-8,-6.2,0.2,26%,5,3,0.1,-6,3
CC(=O)c1ccc(OCCCC(=O)NNC(=O)c2ccccn2)cc1,-1.2,·,·,1.4,10%,-14,-17,0.0,·,-1
O=C(O)/C=C/C(=O)N1CCN(S(=O)(=O)c2cccc(C(F)(F)F)c2)CC1,-1.4,1,7.4,-0.3,2%,·,·,·,-17,-3
